# RE007 growth inh: less growth of the S. pombe RE007 Vpr strain | S. pombe RE007 Vpr strain, BacTiter-Glo ATP luminescence, 24 h; control for the full effect not named in the record | Potency, µM (titrated, usually from 92.2 µM), for inactives: at the highest dose activity change, negative = less growth | 360,000 tested, 0.21% active | AID 651644; active = well fitted falling curve with a large enough effect; inconclusive = small, poorly fitted or top-dose-only effect; inactive = no such curve, though single readings can be large or run the other way;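 note: % is set by controls: 0 for no effect and ±100 for the full control effect; nearly all actives have a fitted effect of over 50% in size; the assay follows cell death caused by Vpr and the record does not say whether a fall means rescue or toxicity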
#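 Fission yeast strain RE007, carrying one chromosomally integrated HIV-1 vpr copy, was seeded at OD 0.01 in PMG+AL medium with 23 nL pinned compound. After 24 h at 30 °C and 99% humidity, viability was read by BacTiter-Glo luminescence.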
# Cruzain inh noDet: inhibitors of Trypanosoma cruzi cruzain without detergent; purified cruzain, Z-FR-AMC fluorescence, no detergent; Potency, µM, for inactives: max response, negative = inhibition, hits mostly inhibitors; 200,000 tested, 2.3% active; active = well fitted curve in the direction sought with a large enough effect; inconclusive = small, poorly fitted or top-dose-only effect, or another doubt; inactive = no such curve, though single readings can be large; an effect the other way counts as inactive or inconclusive;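 note: plate controls were enzyme without inhibitor for no effect and buffer without enzyme for full effect; nearly all actives have a fitted effect of over 40% in size; top concentration of the series not given in the record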
# Target sequence (P25779 123-467 limits assumed): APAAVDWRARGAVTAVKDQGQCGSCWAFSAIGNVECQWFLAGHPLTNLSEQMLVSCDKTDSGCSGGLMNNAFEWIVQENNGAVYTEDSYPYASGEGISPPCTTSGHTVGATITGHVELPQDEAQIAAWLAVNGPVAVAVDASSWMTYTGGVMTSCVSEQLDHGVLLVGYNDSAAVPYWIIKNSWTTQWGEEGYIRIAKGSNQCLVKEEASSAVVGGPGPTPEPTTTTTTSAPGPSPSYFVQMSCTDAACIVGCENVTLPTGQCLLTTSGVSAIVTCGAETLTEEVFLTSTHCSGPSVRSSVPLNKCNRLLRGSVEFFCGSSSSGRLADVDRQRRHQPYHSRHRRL
#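 Detergent-free condition (0.00005% Triton X-100) in acetate buffer pH 5.5 with DTT. 1.5 nM enzyme and compound were pre-mixed 15 min, then 2 uM Z-FR-AMC substrate added; reaction progress from fluorescence change between first and third reads (60 s).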
# SARS PLpro yeast: blocks SARS-CoV papain-like protease in a yeast assay; S. cerevisiae expressing SARS-CoV PLpro, growth rescue; control for the full effect not named in the record; 330,000 tested, 0.19% active; Potency, µM (series often up to 32.9 µM), inactives show at the top dose activity, positive = growth rescue; note: 0% is about no effect; nearly all actives have a fitted effect of over 55% in size; growth read by luminescence after 48 h
# Cruzain inh Det: blocks cruzain activity in presence of Triton detergent; P25779; purified cruzain, Z-FR-AMC fluorescence, 0.01% Triton; Potency, µM, for the others: max response, negative = inhibition, hits mostly inhibitors; 200,000 tested, 0.43% active; AID 1478; active = well fitted curve in the direction sought with a large enough effect; inconclusive = small, poorly fitted or top-dose-only effect, or another doubt; inactive = no such curve, though single readings can be large; an effect the other way counts as inactive or inconclusive;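 note: plate controls were neutral wells for no effect and buffer without enzyme for full effect; nearly all actives have a fitted effect of over 40% in size; top concentration of the series not given in the record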
#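 Compounds were screened in titration against cruzain (1.5 nM) with 0.01% Triton X-100 to counter colloidal aggregation. Activity was the AMC fluorescence increase over 60 s after adding 2 uM Z-FR-AMC at pH 5.5.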
# 2A StopGo: lowers the luciferase signal of an FMDV 2A StopGo reporter; human cells with a luciferase reporter of 2A StopGo recoding; control for the full effect not named in the record; Potency, µM (series often up to 57.9 µM), for inactives: top-dose signal change, negative = less light; 410,000 tested, 1.2% active; AID 1159524; active = well fitted falling curve with a large enough effect; inconclusive = small, poorly fitted or top-dose-only effect; inactive = no such curve, though single readings can be large or run the other way; tested in HEK293T cells; note: % is set by controls: 0 for no effect and ±100 for the full control effect; nearly all actives have a fitted effect of over 45% in size; luciferase light after 4 h
# Marburg entry inh: blocks Marburg virus binding to or entry into cells | Marburg virus pseudotyped entry inhibition, cell reporter; control for the full effect not named in the record; about a third of the inactives were read at about 46 µM | Potency, µM (titrated, usually from 37.8 µM), inactives show top-dose activity change, negative = inhibition, actives largely listed as inhibitors | 300,000 tested, 1.8% active; active = well fitted inhibition curve with a large enough effect; inconclusive = small, poorly fitted or top-dose-only effect, or effect the other way; inactive = flat fitted curve, though single readings scatter; tested in HEK293 cells; about a fifth of its hits are not listed in these tables; note: % is set by controls: 0 for no effect and ±100 for the full control effect; luciferase read-out
# Lassa entry inh: Lassa virus entry inhibition | Lassa virus pseudotype entry inhibition, cell reporter; control for the full effect not named in the record | Potency, µM (series often up to 37.9 µM), without a hit: at the highest dose activity change, negative = inhibition, actives largely listed as inhibitors | 300,000 tested, 1.2% active | AID 540256; active means well fitted inhibition curve with a large enough effect; inconclusive means small, poorly fitted or top-dose-only effect, or effect the other way; inactive means flat fitted curve, though single readings scatter; tested in HEK293 cells; note: % is set by controls: 0 for no effect and ±100 for the full control effect; nearly all actives have a fitted effect of over 50% in size; luciferase read-out
# NS1 function inh: influenza NS1 inhibition | S. cerevisiae slowed by influenza A NS1, growth recovery by OD600 | Potency, µM (highest dose often 46.1 µM), for inactives: top-dose activity, positive = more growth | 270,000 tested, 0.4% active | AID 2326; note: actives are rising curves; nearly all actives have a fitted effect of over 50% in size
#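 S. cerevisiae expressing influenza A NS1, grown in glucose, washed, then diluted 1:100 into pH 6.0 -URA galactose medium with 23 nl compound. Growth recovery read as OD600; NS1-free strain serves as control.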
# The depositor's hits bear a star; ? = inconclusive; nt = no result given; & = joins results of further samples; [ ] = dose if it differs, or a comment. Unless noted, calls come from the whole dose curve; as a rule, active means well fitted rising curve with a large enough effect; inconclusive means small, poorly fitted or top-dose-only effect; inactive means no such curve, though single readings can be large or run the other way. Potency is the fitted concentration of half-maximal effect.
SMILES,RE007 growth inh,Cruzain inh noDet,SARS PLpro yeast,Cruzain inh Det,2A StopGo,Marburg entry inh,Lassa entry inh,NS1 function inh
Cc1ccc(C)c(S(=O)(=O)Nc2ccc(C(=O)NCCCN3CCOCC3)cc2)c1,5%,nt,-1%,nt,-6%,0%[46.1 µM],18%,nt
CC1CCCCC1NC(=O)c1cccc(N2C(=O)C3C4C=CC(C4)C3C2=O)c1 (stereo not given),-8%,nt,0%,nt,?,?,?,-4%
COc1ccc(C(=O)NNC(=O)C2CC=CCC2)cc1 (stereo not given),8%,nt,-7%,nt,54%[activator],24%,?,13%
CCCn1c(N)c(C(=O)COc2ccc(Br)cc2F)c(=O)n(C)c1=O,0%,nt,1%,nt,?,nt,nt,-10%
CCOc1cc(-c2ccccc2)nc(N)n1,-20%,12%,30%,2.9%,44%[activator],?,17%,?
Cc1c(N=NC2=C(O)CC(C)(C)CC2=O)c(=O)n(-c2ccccc2)n1C,-3%,nt,0%,nt,-1%,4%[46.1 µM],13%[46.1 µM],1%
COc1ccc(C=C(C(C)=O)C(C)=O)cc1OC,-16%,-12%,-20%,-1.4%,28µM*,-7%,-14%,-12%
Clc1ccc(C2=CSC3=NCCN23)c(Cl)c1,-5%,nt,nt,nt,0%,0%[46.1 µM],?,nt
CCOC(=O)c1c(NC(=O)C2c3ccccc3Oc3ccccc32)sc(C(N)=O)c1C,11%,-24%,-9%,2.2%,-8%,-18%[46.1 µM],?,8%
C=Cn1ccnc1CC(O)c1ccc(OC)cc1 (stereo not given),1%,nt,nt,nt,3%,20%,12%,nt
Cc1cc(=O)n2nc(N3CCC(C(=O)N4CCN(Cc5ccccc5)CC4)CC3)sc2n1,18%,2%,0%,0.1%,-7%,13%&13%,-9%,3%
Cc1ccc(SCCNC(=O)/C=C/c2ccccc2Cl)cc1,13%,1%,-12%,-7.3%,-20%,-2%,?,-161%
CN1CCN(c2ccc(NC(=O)Oc3ccccc3)cc2)CC1,5%,1%,-3%,-0.5%,46%[activator],?,4%,-7%
Cn1c(SCC(=O)N2CCOCC2)nnc1-c1ccc(NC(=O)c2ccccc2F)cc1,-14%,3%,-5%,-1.8%,nt,-12%,0%,-22%
CCn1cc(S(=O)(=O)Nc2ccc(Cl)cc2F)cn1,1%,nt,1%,nt,24%,19%[46.1 µM],?,4%
Cc1ccc(S(=O)(=O)c2nnn3c2nc(NCc2ccccc2)c2sccc23)cc1,nt,-3%,nt,-3.5%,-15%,nt,-4%[46.1 µM],nt
COc1cccc(/C=N/NC(=S)Nc2cccc(S(=O)(=O)N(C)C)c2)c1,-6%,nt,-1%,nt,?,nt,nt,10%
Cc1cc(S(=O)(=O)N(C)CCc2ccccc2)ccc1-n1cnnn1,-20%,6%,0%,-3.6%,10%,4%,-23%,-1%
O=C(COc1ccc([N+](=O)[O-])cc1)NCc1cccnc1,-1%,-10%,7%,-3.9%,-5%,21%,-1%,3%
CCOc1c2ccc(C(=O)NCc3ccc4c(c3)OCO4)cc2nn1CC,-10%,4%,7%,-7.7%,17%,nt,nt,-19%
CC(SCc1ccccc1)C(=O)Nc1ccccc1Br (stereo not given),-3%,nt,1%,nt,1%,-3%[46.1 µM],?,-18%
O=C(O)CC1c2ccccc2CCN1C(=O)Nc1cc(Cl)ccc1Cl (stereo not given),nt,4%,nt,-2.3%,0%,nt,-12%[46.1 µM],nt
COC(C(=O)NCc1ccc(C)cc1)c1ccccc1 (stereo not given),-4%,nt,1%,nt,-1%,nt,nt,-1%
COc1ccc(NC(=O)Cn2c(CCC(=O)O)ccc2-c2ccccc2)cc1Cl,nt,-4%,nt,-13%,-16%,-3%[46.1 µM],?,nt
CC(=O)NC(=S)Nc1ccc(N2CCOCC2)c(S(=O)(=O)Nc2cc(Cl)ccc2Cl)c1,3%,nt,-1%,nt,57%[activator],?,1%[46.1 µM],nt
Cc1cccc(N2CCN(C(=O)c3ccc4nc[nH]c4c3)CC2)c1C,1%,-11%,-3%,-2.4%,-18%,-23%,-29%,23%
COC(=O)c1cc(C)sc1NC(=O)CC1Nc2ccccc2NC1=O (stereo not given),12%,nt,1%,nt,3%,-16%[46.1 µM],?,nt
CCN(CC(=O)NC(C)(C)C)C(=O)c1ccc(Br)cc1,-13%,nt,1%,nt,11%,-3%[46.1 µM],4%,nt
Cc1c(NC(=O)c2ccc(NS(=O)(=O)c3ccccc3)cc2)c(=O)n(-c2ccccc2)n1C,20%,nt,6%,nt,16%,5%,7%,-10%
Cc1nc2sc3c(c2c(=O)n1NC(=O)CCl)CCCC3,3%,nt,11%,nt,-1%,-11%[46.1 µM],17%[46.1 µM],-2%

# 3 entries from above, with tabs:
SMILES	RE007 growth inh	Cruzain inh noDet	SARS PLpro yeast	Cruzain inh Det	2A StopGo	Marburg entry inh	Lassa entry inh	NS1 function inh
COC(=O)c1cc(C)sc1NC(=O)CC1Nc2ccccc2NC1=O (stereo not given)	12%	nt	1%	nt	3%	-16%[46.1 µM]	?	nt
CCN(CC(=O)NC(C)(C)C)C(=O)c1ccc(Br)cc1	-13%	nt	1%	nt	11%	-3%[46.1 µM]	4%	nt
Cc1c(NC(=O)c2ccc(NS(=O)(=O)c3ccccc3)cc2)c(=O)n(-c2ccccc2)n1C	20%	nt	6%	nt	16%	5%	7%	-10%

# More compounds follow.
SMILES,RE007 growth inh,Cruzain inh noDet,SARS PLpro yeast,Cruzain inh Det,2A StopGo,Marburg entry inh,Lassa entry inh,NS1 function inh
COc1cc(OC)cc(-c2c(C#Cc3ccsc3)c3cc(-c4ccc5[nH]ccc5c4)ccc3n2C)c1,13%,nt,0%,nt,8%,-4%,nt,nt
CCCNC(=S)N1CCN(c2nc(-c3cccc(OC)c3)cs2)CC1,-5%,nt,?,nt,?,-30%,-2%,-18%
CC(O)(C#CCN1CCCCC1)c1ccccc1 (stereo not given),1%,0%,0%,0.9%,11%,9%,-7%,6%
COc1ccc(NC(=S)NCc2ccco2)cc1,7%,3%,-2%,1.8%,50%[activator],2%,12%,0%
O=C1CCC/C(=N\NC(=O)c2ccc(COc3cccc4cccnc34)cc2)C1,-15%,6%,21%,-4.5%,-1%,?,-8%,23%
CC(Sc1nncs1)C(=O)NCC(=O)Nc1ccc(F)c(F)c1F (stereo not given),11%,nt,0%,nt,-4%,-1%[46.1 µM],-12%[46.1 µM],nt
COc1ccc(OC)c(NP(=O)(Oc2ccccc2)Oc2ccccc2)c1,-2%,nt,-1%,nt,1%,-8%[46.1 µM],?,-5%
COc1ccc(C(=O)CSc2nnc(CN3CCCCC3)n2-c2ccc(F)cc2)cc1,-3%,3%,-13%,-7.9%,-30%,-9%[46.1 µM],-3%,-9%
CNS(=O)(=O)c1cccc(C(=O)NCC2(N3CCOCC3)CCCCC2)c1,-8%,nt,1%,nt,8%,4%[46.1 µM],0%,nt
Cc1cccc(OCC(=O)NC(Cc2ccccc2)C(=O)O)c1 (stereo not given),16%,4%,10%,-2.5%,-19%,3%,-7%,7%
CCOc1cc(CNC(=O)c2cc(-c3ccc(Cl)s3)nc3ccccc23)ccc1OC,nt,-10%,nt,-1.9%,-3%,1%[46.1 µM],30%[46.1 µM],nt
CC(=O)N1CCC(=O)N(C(C)C)c2ccccc21,-4%,-8%,2%,5.8%,-10%,-1%,-10%,-1%
Cc1ccc(S(=O)(=O)Cn2nnnc2C(c2ccccn2)N2CCN(c3ccccc3)CC2)cc1 (stereo not given),-7%,?,11%,-6.5%,nt,?,?,?
CCOC(=O)C(CC)Sc1ncnc2nc[nH]c12 (stereo not given),12%,1%,11%,0.0%,-14%,13%,23%,-6%
CCC(C(=O)NC1CCCC1)N(C(=O)c1snc(C(N)=O)c1N)c1ccc(OC)c(OC)c1 (stereo not given),1%,nt,2%,nt,-9%,?,nt,0%
COc1c(Cl)cnn(-c2ccc(C)cc2)c1=O,11%,-10%,3%,3.2%,6%,-25%,-1%,0%
C=C1CC(COc2ccc3c(C)c(Cl)c(=O)oc3c2)(c2ccccc2)OC1=O (stereo not given),2%,nt,nt,nt,22µM*,7.1µM*,10µM*,nt
CCOc1ccc(S(=O)(=O)Nc2ccc(-c3ccc(N4CCCC4)nn3)cc2)cc1,nt,8%,nt,-0.1%,-20%,nt,18%[46.1 µM],nt
CCCOc1ccc(C(=O)N2CCN(c3ccc(NC(=O)CC)cc3Cl)CC2)cc1,8%,?,-17%,-3.6%,?,-25%,?,-33%
COc1ccc(N2CCN(C(=O)CCC(=O)c3cc(C)sc3C)CC2)cc1,1%,nt,-1%,nt,-25%,?,-8%[46.1 µM],nt
CCOc1ccc(NC(=O)CSc2cn[nH]n2)cc1,2%,nt,-4%,nt,27%,?,-4%,nt
COc1ccc(-c2cnnn2-c2ccc(NC(=O)c3ccc(S(=O)(=O)N(C)C)cc3)cc2)cc1,nt,?,nt,0.0%,?,nt,?,nt
Cc1ccc2c(c1)N(C(=O)N1CCC(C(=O)NCc3cccs3)CC1)CC(C)O2 (stereo not given),nt,8%,nt,-4.2%,-24%,nt,25%[46.1 µM],nt
O=C(O)CCSCc1ccccc1F,29%,-6%,1%,1.1%,-16%,1%[46.1 µM],22%,-2%
CCNC(=O)[C@H]1O[C@@H](n2cnc3c(N)ncnc32)[C@H](O)[C@H]1O,nt,-5%,nt,-1.0%,nt,?,nt,-8%
COC(=O)c1c(NC(=O)COC(=O)[C@@H](NS(=O)(=O)c2ccc(C)cc2)C(C)C)sc2c1CCC2,2%,16µM*,22%,-5.9%,-4%,-34%,?,29%
Cc1ccn2c(=O)c(C(=O)Nc3ccc(F)c(C(F)(F)F)c3)cnc2c1,nt,-8%,nt,0.1%,-24%,-1%[46.1 µM],nt,nt
COC(=O)c1ccc(OCC(=O)c2cccc(OC)c2)cc1,22%,13%,-8%,-3.3%,26%,?,16%,24%

# Source: PubChem BioAssay (National Center for Advancing Translational Sciences (NCATS))
